2A Renilla: lowers the Renilla signal of an FMDV 2A StopGo reporter; 120,000 tested, 0.32% active; HEK cells with a luciferase reporter of 2A StopGo recoding; AID 1745857; Potency, µM (series often up to 57.5 µM), without a hit: at the highest dose signal change, negative = less light; active means well fitted falling curve with a large enough effect; inconclusive means small, poorly fitted or top-dose-only effect; inactive means no such curve, though single readings can be large or run the other way; also: nearly all actives have a fitted effect of over 55% in size; overnight with compound
2A firefly: lowers the firefly signal of an FMDV 2A StopGo reporter; HEK cells with a luciferase reporter of 2A StopGo recoding; Potency, µM (series often up to 57.5 µM), inactives show top-dose signal change, negative = less light; 120,000 tested, 0.23% active; active = well fitted falling curve with a large enough effect; inconclusive = small, poorly fitted or top-dose-only effect; inactive = no such curve, though single readings can be large or run the other way; also: nearly all actives have a fitted effect of over 60% in size; overnight with compound
The depositor's hits bear a star; ? = inconclusive; & = joins results of further samples; [ ] = remark or other dose. % is scaled to controls: 0 for no effect and ±100 for the full control effect; potency is read from the fitted curve at half-maximal effect.

SMILES	2A Renilla	2A firefly
CC(=O)N[C@@H](CO)C(=O)N[C@@H](CC(=O)O)C(=O)N[C@@H](CCCCN)C(=O)N1CCC[C@H]1C(=O)O	-7%	-15%
C=CCN1CCN(c2nc3c(c(=O)[nH]c(=O)n3C)n2Cc2ccc(Cl)cc2Cl)CC1	-8%	-4%
NC(=O)OCCCc1ccccc1	-12%	-15%[11.5 µM]
O=C(c1ccc2c(c1)OCCO2)N(Cc1cccnc1)c1nc2c(Cl)cccc2s1	-14%	2%
Cc1cc(N)ccc1C(C)C	-1%	22%
C/C(=N\NC(=O)C1CC1)c1ccc2ccccc2c1	21%	278%[activator]
Cc1ccc(OCCn2c(CN(C)C(=O)c3ccco3)nc3ccccc32)cc1C	12%	4%
Cc1nn2c(=O)cc(COC(=O)c3ccc(NC(=O)COc4ccc(Cl)cc4)cc3)nc2s1	7%	-13%
Cc1ccc2c(COC(=O)c3ccc(C)c(C)c3)cc(=O)oc2c1	-9%	2%
CC(C)OCc1cccc(CNC(=O)C2CCCCC2)c1	20%	112%[activator]
C=C=Cn1c(C2CC(=O)N(c3cccc(C(F)(F)F)c3)C2)nc2ccccc21 (stereo not given)	7%	-8%
Cc1cccc(Oc2c(C(F)(F)F)oc3cc(OC(=O)c4cncc(Br)c4)ccc3c2=O)c1	?	?
CCOc1ccc(C2CC(=O)N(c3cccc(C(F)(F)F)c3)C3=C2C(=O)OC3)cc1 (stereo not given)	-17%	-6%
CCCCc1nnc(SCc2cc(=O)c3cc(F)ccc3[nH]2)n1C	?	?
CCCCC(=O)OCC(=O)[C@H]1[C@H](C)C[C@H]2[C@@H]3C[C@H](F)C4=CC(=O)C=C[C@]4(C)[C@@]3(F)[C@@H](O)C[C@@]21C	22%	7%[11.5 µM]
O=C(OCC(=O)c1cccc2ccccc12)c1cc(=O)c2ccccc2o1	-1%	4%
COc1ccc(S(=O)(=O)N(CC(C)C)CC(C)C)c2cccnc12	29%	24%
CCCc1ccc(C(=O)NCc2ccccn2)cc1	14%	120%[activator]
COc1cc(C(=O)OCc2cc(=O)n3nc(C(C)C)sc3n2)cc(OC)c1OC	-7%	-12%
O=C1NCCN(Cc2ccc(F)cc2)C1=O	-9%	-24%
Cc1ccc(C(=O)NC(Nc2cccc(C(F)(F)F)c2)C(=O)c2ccccc2)cc1 (stereo not given)	112%[activator]	59%[activator]
Cc1ccc(CC(=O)NCCc2c[nH]c3ccccc23)cc1	17%	45%[activator]
Cn1c(=O)n(C)c2cc(N3CCOCC3)c(NS(=O)(=O)c3ccc(F)cc3)cc21	15%	5%
Cc1ccc(CSCCNC(=O)NNC(=O)c2ccc(C)cc2)cc1	174%[activator]	9%
CCCCCCNc1nc2c(c(=O)n(C)c(=O)n2C)n1Cc1cccc(Cl)c1	-6%	-8%

The list goes on.
SMILES	2A Renilla	2A firefly
CCN(CC1CCOC1)C(=O)c1nn(C(C)C)c(=O)c2ccccc12 (stereo not given)	-3%	-7%
COC(=O)C1CCN(S(=O)(=O)c2cc3c4c(c2)C(C)C(=O)N4CCC3)CC1 (stereo not given)	0%	16%
Cc1cc(OC(C)C(=O)NN)ccc1Cl (stereo not given)	-9%[1.06 µM]	?
CCCOC(=O)c1c(NC(=O)C2c3ccccc3Oc3ccccc32)sc2c1CCCC2	-10%	-6%
Cc1ccc(C(=O)c2oc3ccccc3c2NC(=O)C(C)Oc2ccccc2Cl)cc1 (stereo not given)	-6%	-7%
Cc1cccc(OCC(=O)Nc2cccc3cccnc23)c1C	-11%&-3%	0%&5%
Cc1ccc(Cn2c(=O)n(CCc3ccccc3)c(=O)c3c(C)c(C)sc32)cc1	-11%	7%
CC1CCN(C(=O)C(=O)N2CCN(c3nc(-c4ccco4)c4c(c3C#N)CC(C)(C)OC4)CC2)CC1	-6%	-6%
Cc1ccc(C)c(OCCCOc2ccccc2/C=N/NC(=O)c2cccc(Cl)c2)c1	28%	0%
CC(C)CNC(=O)COc1ncnc2ccccc12	-1%	19%
CC1(C)CC(=O)C2=C(C1)OC(N)=C(C#N)C2c1ccc2c(c1)OCO2 (stereo not given)	-6%	-3%
O=C(COc1ccc2ccccc2c1)NC1CC(=O)N(c2ccc(F)cc2)C1 (stereo not given)	-12%	-10%
CCN(CC)c1ccc(-c2nnc(SCCS(=O)(=O)c3ccc(Cl)cc3)o2)cc1	-2%	37%[activator]
COC(=O)CN1C(=O)CSc2ccc(S(=O)(=O)Nc3ccc(F)c(Cl)c3)cc21	115%[activator]	-14%
CCCSCCCNC(=O)Cn1c(-c2cccs2)cc2ccccc21	1%	-8%
CCc1cccc(-n2c(=O)c3cccnc3n2CC(=O)NCc2ccc(C)cc2)c1	1%	-5%
Cc1nnc(N2CCC(C(=O)NCCC(C)C)CC2)c2nn(-c3ccc(Cl)cc3)c(C)c12	4%	-7%
CCCCCCNC(=S)Nc1ccccc1	102%[activator]	97%[activator]
CCOC(=O)CNC(=O)c1cc2c(=O)n(CC)c3ccccc3c2s1	-6%	-23%
C=CCn1c(SC/C=C/C)nc2c1c(=O)n(C)c(=O)n2C	-7%	6%
Cc1cc(Cl)ccc1NC(=O)CN1C(=O)COc2ccc(S(=O)(=O)Nc3ccccc3)cc21	137%[activator]	-6%
Cc1ccc(-n2c(=O)c3c(c4cc(C)ccc4n3C)n(CC(=O)NCC3CCCO3)c2=O)cc1 (stereo not given)	-17%	-11%
CCOc1ccc(-c2nc(SCC(=O)NC3CCCC3)c(-c3ccccc3)[nH]2)cc1OC	-11%	1%
COc1cccc(/C=C2\Oc3cc(OS(=O)(=O)c4ccc(C)cc4)ccc3C2=O)c1	3%	0%
Cc1csc2nc(COc3ccc(NC(=O)COc4ccc(F)cc4)cc3)cc(=O)n12	-11%	-8%

Sorted by molecular weight (low to high): part of the list above
SMILES	2A Renilla	2A firefly
O=C1NCCN(Cc2ccc(F)cc2)C1=O	-9%	-24%
C/C(=N\NC(=O)C1CC1)c1ccc2ccccc2c1	21%	278%[activator]
CCCCCCNc1nc2c(c(=O)n(C)c(=O)n2C)n1Cc1cccc(Cl)c1	-6%	-8%
Cc1ccc(Cn2c(=O)n(CCc3ccccc3)c(=O)c3c(C)c(C)sc32)cc1	-11%	7%
Cc1ccc(C)c(OCCCOc2ccccc2/C=N/NC(=O)c2cccc(Cl)c2)c1	28%	0%
CCN(CC)c1ccc(-c2nnc(SCCS(=O)(=O)c3ccc(Cl)cc3)o2)cc1	-2%	37%[activator]

Carrying on.
SMILES	2A Renilla	2A firefly
CSc1nc(N)c2c(n1)OC(N)=C(C#N)C2c1ccccc1F (stereo not given)	-9%	6%
CCOC(=O)C1=C(C)N(C)C(=O)C1(c1cc(C)c(O)c(C)c1)C(F)(F)F (stereo not given)	13%	0%
CCN(Cc1ccccc1)C(=O)c1cc(-c2ccccc2)n[nH]1	144%[activator]	221%[activator]
CC1CCCCN1C(=O)c1cc(-c2ccc(Br)cc2)on1 (stereo not given)	-4%	70%[activator]
Cc1ccc(S(=O)(=O)N2CCN(Cc3csc(C)n3)CC2)cc1	7%	-5%
Cc1ccc(-c2nc(CNC(=O)NC3CCCCC3)c(C)o2)cc1	-12%	-20%
COc1ccc(NC(=O)c2ccc(CN3C(=O)CCn4nc(C)cc43)cc2)c(OC)c1	-5%	-5%
CCc1ccccc1NC(=O)Cn1cc(C(=O)c2ccncc2)c(=O)c2cc(C)ccc21	-10%	-17%
Cc1cc(C)c(NC(=O)Cn2nnc(-c3ccccc3)n2)c(C)c1	0%	3%
CCSCc1ccc(C(=O)C(C#N)C(=O)NC(C)C)cc1 (stereo not given)	?	123%[activator]
Cc1ccc(-n2ncc(C(=O)NCCc3ccsc3)c2C2CCN(C(=O)OC(C)(C)C)CC2)c(C)c1	35%[activator]	7%
COc1ccc(C(=O)Nc2ccc(OCc3cc(=O)n4ccsc4n3)cc2)cc1OC	-7%	-7%
Cc1cccc(NC(=O)CSc2nnc3c4ccccc4n(C)c3n2)c1	-6%	-9%
O=C(CCl)N1c2ccccc2S(=O)c2ccccc21	1%	-3%
CC(NC(=O)C1CC=CCC1)c1ccc(C(F)(F)F)cc1 (stereo not given)	0%	9%
Cn1cc(CCCC(=O)NCc2ccc(F)cc2)c2ccccc21	31%[activator]	-10%
C1CN[C@H](CN2CCCC2)C1	2%	4%
CCOP(=S)(OCC)Oc1cc(C)nc(C(C)C)n1	-15%	-21%
Cc1ccccc1NC(=O)C(Cc1ccccc1)N1Cc2ccccc2C1=O (stereo not given)	69%[activator]	-21%
CC(NC(=O)c1ccc2c(c1)CCCC2)c1ccc(F)cc1F (stereo not given)	25%	0%
CCc1ccccc1NC(=O)CC(C)S(=O)(=O)c1ccc2c(c1)NC(=O)CO2 (stereo not given)	-16%	-4%
COC(=O)c1ccc(C)c(NC(=O)Cc2cc(C(C)=O)ccc2OC)c1	8%	19%
CNCc1cccc(OC)c1OCc1ccc(Cl)cc1	-9%	-15%
Cc1ccccc1CS(=O)(=O)CC1Nc2ccc(C(=O)NCc3ccc(Cl)cc3)cc2NC1=O (stereo not given)	-6%	-10%
CC(C)NC(=O)CN1C(=O)COc2ccc(S(=O)(=O)N3CCCCCC3)cc21	-2%	-4%

2 of these compounds in a different format:
Cc1ccccc1NC(=O)C(Cc1ccccc1)N1Cc2ccccc2C1=O (stereo not given)
- 2A Renilla: 69%[activator]
- 2A firefly: -21%

CC(NC(=O)c1ccc2c(c1)CCCC2)c1ccc(F)cc1F (stereo not given)
- 2A Renilla: 25%
- 2A firefly: 0%

Additional entries.
SMILES	2A Renilla	2A firefly
COc1ccc(Nc2nnc(-c3ccc(C)c(S(=O)(=O)N4CCN(C)CC4)c3)c3ccccc23)cc1	0%	13%
COc1cccc2c1C(=O)c1c(O)c3c(c(O)c1C2=O)C[C@@](O)(C(=O)CO)CC3OC1CC(N2CCOC(OC)C2)C(O)C(C)O1 (stereo not given in full)	?	?
CCCCCCCn1c(NCCCO)nc2c1c(=O)[nH]c(=O)n2C	30%	23%
COC(=O)[C@]12C[C@H](CC(=O)NCCCN3CCCC3=O)C(=O)N(Cc3ccc(Cl)cc3Cl)C1=C[C@H](COCc1ccccc1)O[C@@H]2C	6%	-3%
Cc1ccc(CNC(=O)c2ccc3nc(SCc4ccc(F)cc4)[nH]c3c2)cc1	?	?
Cc1ccc(CSc2nc(-c3ccc(C(C)(C)C)cc3)nc3cc(=O)[nH]n23)cc1	8%	34%[activator]
COC(=O)c1c(NC(=O)c2ccc(Cl)c(Cl)c2)sc2c1CCCC2	-15%	-5%
O=C1CCCN1c1ccc(-c2csc(-c3ccsc3)n2)cc1	2%	15%
O=C(NC1CCC1)c1ccc(C#CC2CC2)cn1	-5%	204%[activator]
O=C(CCS(=O)(=O)c1nc(-c2ccc3c(c2)OCO3)cc(C(F)(F)F)n1)Nc1ccc(F)c(Cl)c1	-13%	-13%
CCOC(=O)c1cc(NC(=O)c2cnccn2)cc(C(=O)OCC)c1	-6%	-6%
COc1ccc(-n2nc3cc(C)c(NC(=O)COc4cccc(C)c4)cc3n2)cc1	-7%	6%
CC1=C/C(=N/NC(=S)Nc2ccc(Cl)cc2)CC(C)(C)C1	12%	0%
CCOC(=O)C(C)Oc1ccc2c(=O)c(Oc3ccccc3)c(C)oc2c1 (stereo not given)	7%	0%
O=C1CCCC2=C1C(c1cccc(Cl)c1Cl)CC(=O)N2c1ccc(F)cc1 (stereo not given)	38%	42%[activator]
O=C(Cn1cc(S(=O)(=O)c2ccccc2)c(=O)c2cc3c(cc21)OCO3)Nc1ccc(Cl)cc1	24%	-5%
CCOC(=O)c1c(C)[nH]c(CCC(=O)NCCCN2CCN(c3ccccc3F)CC2)c1C	-12%	-20%
COc1ccc(-c2nc(Nc3ccc(C)cc3)c3ccccc3n2)cc1	15%	32%[activator]
Cc1cc(N2CCC(C)CC2)nc2ccc(NC(=O)/C=C/c3cccc(Cl)c3)cc12	-2%	-7%
COc1ccc(Oc2coc3cc(OC(=O)c4ccccc4Cl)ccc3c2=O)cc1	0%	75%[activator]
Cc1ccc(CNS(=O)(=O)c2ccc3c(c2)N(Cc2noc(C)n2)C(=O)CO3)cc1	61%[activator]	-4%
COc1cc(/C=C(\C#N)c2nc3ccccc3[nH]2)ccc1OC(C)C(=O)O (stereo not given)	8%	0%
COc1ccccc1CN(C)CC(O)COc1c(C)ccc(C)c1C (stereo not given)	9%	3%
CN(C)c1ccc(CNC(=O)CCS(=O)(=O)c2ccc3c(c2)oc(=O)n3C)cc1	4%	-10%
CC(=O)c1ccc(N2CCN(C(=O)CS(=O)(=O)c3cccc4nsnc34)CC2)cc1	0%	14%

(cont.)
SMILES	2A Renilla	2A firefly
CCOC(=O)C1CCCN(c2nc3c(S(=O)(=O)c4ccc(Br)cc4)nnn3c3ccsc23)C1 (stereo not given)	-6%	-16%
COc1cccc(/C=C/c2nc3c(ccc4ccccc43)s2)c1OC	-3%	149%[activator]
CCCCOc1ccc(NC(=O)c2ccccc2Cl)c2cccnc12	9%	14%
O=C(/C=C/c1cc(O)ccc1Br)c1ccc(Cl)cc1Cl	-32%	-13%
CCCCCOc1ccc(C(=O)N(Cc2ccccc2)C2CCS(=O)(=O)C2)cc1 (stereo not given)	6%	-3%
COc1ccc(C(=O)/C=C/c2cccs2)c(OC(=O)c2cccs2)c1	?	13%
CC(=O)Nc1cc(C(=O)NCCC2=CCCCC2)ccc1Sc1ccc(C)cc1	17%	44%[activator]

Assay outcomes: PubChem BioAssay, National Center for Advancing Translational Sciences (NCATS)

These rows are one share of the data (hit frequency here may not be typical).
